Screens as filed in PubChem BioAssay.
TRPML1 inh = blocks the human TRPML1 channel. Q9GZU1. AID 624415. hit rate 0.02% among 390,000. TRPML1-inducible cells, Ca2+ dye fluorescence, FDSS; stronger effect = lower value; inhibition of EC80 agonist-evoked calcium signal. activity change, negative = inhibition, % (no concentration beside the values); in the data active means activity change below about -50%; inconclusive means about -30% to -50%; inactive means above about -30%;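 note: stimulus is agonist 54-4 at its EC80 concentration; % is set by controls: 0 for no effect and ±100 for the full control effect; compound concentration not given in the record; the text of the record puts the active cut at -80%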
Target sequence (Q9GZU1 whole entry, looked up): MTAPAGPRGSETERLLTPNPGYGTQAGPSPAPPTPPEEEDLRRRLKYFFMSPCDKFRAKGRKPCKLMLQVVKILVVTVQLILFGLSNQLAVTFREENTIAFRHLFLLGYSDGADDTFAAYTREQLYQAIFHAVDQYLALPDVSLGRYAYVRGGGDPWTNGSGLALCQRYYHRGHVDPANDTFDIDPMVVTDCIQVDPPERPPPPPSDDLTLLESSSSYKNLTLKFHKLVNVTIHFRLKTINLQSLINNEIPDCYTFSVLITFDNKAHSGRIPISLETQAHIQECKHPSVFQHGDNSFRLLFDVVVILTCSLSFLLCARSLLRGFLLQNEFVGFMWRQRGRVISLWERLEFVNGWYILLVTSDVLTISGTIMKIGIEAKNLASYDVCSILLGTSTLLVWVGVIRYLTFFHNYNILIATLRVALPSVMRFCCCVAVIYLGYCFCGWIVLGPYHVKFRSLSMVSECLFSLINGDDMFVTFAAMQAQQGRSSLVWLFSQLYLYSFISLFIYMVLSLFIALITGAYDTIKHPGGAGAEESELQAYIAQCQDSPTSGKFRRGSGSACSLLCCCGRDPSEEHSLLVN
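Tet-induced TRPML1-DL cells loaded with Ca8 no-wash calcium dye were read kinetically on FDSS. Compound addition was followed by EC80 agonist 54-4 (4 uM final); inhibition was read over 110 s.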
TRPML1 ag = activates the human TRPML1 channel | Q9GZU1 | TRPML1-expressing cells, Ca2+ dye fluorescence, FDSS; host cell line not named in the record; reference of the full effect not given here | activation, % (concentration not given with the values) | hit rate 0.12% among 410,000 | AID 624414; in the data active = activation above about 50%; inconclusive = about 30% to 50%; inactive = below about 30%; note: 0% is about no effect; the text of the record puts the active cut at 80%
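Tetracycline-induced TRPML1-DL cells are seeded and incubated overnight before loading with a no-wash Ca2+ dye and quencher. Agonist activity is taken from the 110 s fluorescence read following compound pin-transfer on an FDSS, before EC80 54-4 challenge.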
D2 ag = activates the human D2 dopamine receptor; AID 624465; hit rate 0.084% among 360,000; DiscoveRx PathHunter D2 beta-arrestin, luminescence, 90 min; 100% = 57 uM dopamine signal; activation, % (no concentration beside the values); P14416; in the data active = activation above about 40%; inconclusive = about 15% to 40%; inactive = below about 15%; note: compound concentration not given in the record; the text of the record calls up to 30% inactive
Target sequence (P14416 whole entry, looked up): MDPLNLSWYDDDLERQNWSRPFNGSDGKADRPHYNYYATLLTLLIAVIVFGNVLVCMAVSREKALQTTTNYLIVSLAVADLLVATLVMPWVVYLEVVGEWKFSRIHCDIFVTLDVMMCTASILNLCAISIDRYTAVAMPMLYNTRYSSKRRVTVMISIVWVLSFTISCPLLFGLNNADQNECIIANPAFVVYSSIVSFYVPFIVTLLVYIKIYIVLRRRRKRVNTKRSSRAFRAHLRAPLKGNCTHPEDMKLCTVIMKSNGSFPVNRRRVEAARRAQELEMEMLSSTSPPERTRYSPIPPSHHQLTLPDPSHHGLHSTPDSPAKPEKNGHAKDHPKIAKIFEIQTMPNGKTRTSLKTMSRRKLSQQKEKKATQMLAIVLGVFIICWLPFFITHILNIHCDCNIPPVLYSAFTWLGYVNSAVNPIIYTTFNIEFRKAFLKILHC
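DiscoveRx PathHunter D2 beta-arrestin cells (2,100/well) attached overnight, then compound-stimulated 90 min at 37 C in HBSS/10 mM HEPES/0.1% Tween-20 buffer; beta-galactosidase complementation read by luminescence after 1 h at ambient temperature. Dopamine 57 uM final (EC100) as control.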
Six1-Eya2 blk = inhibitors of human Six1/Eya2 interaction; AlphaScreen GST-Six1/His-Eya2 binding, biochemical; stronger effect = lower value; control for the full effect not named in the record; activity change, % (test concentration not listed); hit rate 0.56% among 360,000; AID 651725; in the data active = activity change below about -65%; inconclusive = about -30% to -65%; inactive = above about -30%; note: % is set by controls: 0 for no effect and ±100 for the full control effect; compound concentration not given in the record
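AlphaScreen with GST-Six1 and His-Eya2 (5X mix: 250 nM and 500 nM), glutathione donor and nickel acceptor beads; buffer 50 mM Tris pH 8.0, 300 mM NaCl, 1 mM TCEP; 1 h at 37 C in the dark.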
CtBP-E1A blk = inhibitors of CtBP/E1A interaction. activity change, % (concentration not given with the values). hit rate 0.49% among 340,000. AlphaScreen GST-E1A/His-CtBP binding, 1536-well; stronger effect = lower value; control for the full effect not named in the record; in the data active means activity change below about -65%; inconclusive means about -30% to -65%; inactive means above about -30%; note: % is set by controls: 0 for no effect and ±100 for the full control effect
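Homogeneous bead-based format: GST-tagged E1A captured on glutathione donor beads, His-tagged CtBP on nickel acceptor beads; compounds precede bead addition by 2 h at 37 °C.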
PINK1 modulator = modulators of PINK1 expression; PINK1 immunofluorescence, high-content cytometry, 24 h; Potency, µM (doses to about 76.6 µM), without a hit: at the highest dose activation (PINK1 increase), actives largely listed as activators; hit rate 0.2% among 410,000; AID 624263; active = well fitted activation curve with a large enough effect; inconclusive = small, poorly fitted or top-dose-only effect; inactive = flat fitted curve, though single readings scatter; cell line not stated here;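 note: potency is the fitted concentration of half-maximal effect; % of control where 0% means no effect; nearly all actives have a fitted effect of over 65% in size; a mitochondrial uncoupler was the plate control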
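Decision-based qHTS: stable cells, 24 h exposure to five compound concentrations, CCCP as control. Fixed cells stained for PINK1 plus nuclear, mitochondrial and cell markers, cytometer read.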
* = called active by the depositor; ? = inconclusive; / = no result given; & = joins results of further samples; [ ] = remark or other dose.

SMILES | TRPML1 inh | TRPML1 ag | D2 ag | Six1-Eya2 blk | CtBP-E1A blk | PINK1 modulator
Cc1ccc(O)c(C2=Nc3ccccc3C2(C)C)c1 | -5 | 1.0 | -3.7 | 57 | 8 | 5.1%
O=C(NCc1ccco1)c1cc(-c2ccc(Cl)cc2)on1 | 110 | 0.9 | -5.4 | 0 | 42 | 4.7%[38.3 µM]
COc1ccc(C(=O)Nc2cccc(-c3cnc4ccccc4n3)c2)cc1 | -4 | -0.4 | 0.2 | 6 | 3 | 2.7%
O=C(Cc1ccc(F)cc1)NCCc1ccc(F)cc1 | -10 | -1.7 | -6.1 | 11 | -5 | 1.7%
COc1ccc(CNC(=O)Cn2ccc3cc(S(=O)(=O)N4CCCCCC4)ccc32)c(OC)c1 | -10 | 0.2 | / | / | / | -0.3%
COc1ccccc1C(=O)n1nc(C)cc1C | -1 | -0.3 | -2.0 | 2 | 5 | 0.9%
CN(C)C1=NC(=O)/C(=C\c2ccccc2)S1 | -3 | 0.5 | -0.4 | -3 | / | -0.6%
COc1cccc(OC)c1OCCN(C)C | 0 | -0.1 | -0.1 | 4 | -8 | -0.5%
COc1cccc(NC(=O)CCc2c(C)nc3nc(CNC(=O)c4cccc(F)c4)nn3c2C)c1 | 1&-10 | -0.8&3.8 | -2.8 | ? | -76* | 2.1%&6.0%
O=C(c1sc2ccccc2c1Cl)N(Cc1cccs1)C1CCS(=O)(=O)C1 (stereo unspecified) | -9 | 1.1 | -4.7 | -3 | -15 | 0.8%
COCCNC(=O)c1ccc2c(c1)nc(C)n2-c1cccc(F)c1 | -2 | -1.4 | -1.1 | 3 | -12 | -1.4%
CCOc1ccccc1NC(=O)C(NS(=O)(=O)c1cccc2nsnc12)c1ccccc1 (stereo unspecified) | 1 | 4.1 | / | / | / | -0.4%
CCOC(=O)c1cc2cc(OC)ccc2n1C1CCN(CCc2ccccc2)CC1 | / | 0.5 | / | -19 | 0 | 17%
O=C1c2cc(S(=O)(=O)NCCO)ccc2-c2ccc(S(=O)(=O)NCCO)cc21 | -6 | 0.3 | -1.2 | -2 | 4 | 0.2%
C#CCSc1nnc(C)c(C)n1 | -12 | -0.8 | -1.9 | -1 | 0 | 0.9%
CC(=O)Nc1ccc2nc(-c3ccco3)[nH]c2c1 | -5 | 1.1 | 4.3 | -8 | -22 | 1.4%
CC(=O)Oc1ccc2c(c1)cc(C)n2C | 23 | 1.1 | 3.2 | -8 | -5 | -1.5%
CN1CCN(S(=O)(=O)c2ccc(-c3ccc(Cl)cc3)cc2)CC1 | 16 | 0.5 | 0.1 | -1 | 6 | 1.3%[38.3 µM]
CS(=O)(=O)N1CCC(C(=O)Nc2cccc(F)c2)CC1 | -2 | 0.3 | -3.8 | 3 | 2 | -1.5%
COc1cc(OC)c2c(O)c3c(c(-c4c5c(c(O)c6c(OC)cc(OC)cc46)CO[C@@H](C)[C@H]5O)c2c1)[C@H](O)[C@H](C)OC3 | 30 | 1.0 | 12 | -9 | 2 | 7.1%
O=C(CCc1ccccc1)Nc1nc2n(n1)C(c1ccccc1)CC(=O)N2 (stereo unspecified) | 12 | -0.2 | 0.4 | 3 | -2 | 0.8%
COc1cc(S(=O)(=O)Nc2cccc3cn[nH]c23)c(OC)cc1Cl | 20 | 2.1 | 3.1 | -1 | -1 | 2.1%
CC1=C(C(=O)NCc2ccco2)C2(CCC(C)CC2)OC1=O (stereo unspecified) | 10 | -0.2 | -5.3 | 1 | 1 | 2.0%
Cc1nnc(N(Cc2ccco2)C(=O)c2cccc(C#N)c2)s1 | 26 | -0.8 | -2.5 | -2 | -3 | 0.0%
CN=c1scc(-c2ccc(Cl)cc2)n1C | 38 | 4.3 | -1.5 | -6 | -2 | -1.5%
SMILES | TRPML1 inh | TRPML1 ag | D2 ag | Six1-Eya2 blk | CtBP-E1A blk | PINK1 modulator
COc1ccc(C(NC(=O)CC(C)C)NC(=O)CC(C)C)cc1OC | 15 | 0.1 | 1.1 | -2 | 8 | -0.2%
O=S(=O)(Nc1nc2ccccc2nc1Nc1ccc2c(c1)OCCO2)c1cccs1 | -3 | 0.2 | 4.7 | -11 | -23 | -1.0%[38.3 µM]
c1ccc2c(c1)CN1C(=N2)COc2ccccc2C1c1nc2ccccc2[nH]1 (stereo unspecified) | / | -0.3 | / | 1 | 7 | 1.2%
O=C(/C=C/[C@H]1O[C@@H](n2ccc(=O)[nH]c2=O)[C@H](O)[C@@H]1O)NC(c1ccccc1)c1ccccc1 | -20 | 0.1 | -4.6 | 4 | 5 | -0.9%
CC(C)c1[nH]nc2c1C(Cc1ccccc1)C(C#N)=C(N)O2 (stereo unspecified) | 3 | 0.0 | -6.9 | -1 | 14 | -1.4%
Cc1[nH][nH]c(=O)c1C(c1c(C)[nH][nH]c1=O)c1cn(Cc2ccc(F)cc2)c2ccccc12 | 4 | -0.1 | -8.1 | 2 | 0 | -4.4%
COc1nn(-c2nc(-c3ccccc3)cc(C(F)(F)F)n2)cc1[N+](=O)[O-] | -1 | -0.2 | -3.8 | -1 | 5 | 8.3%
O=C(Nc1ccc(S(=O)(=O)N2CCCCC2)cc1)C1CC(=O)N(Cc2ccccc2)C1 (stereo unspecified) | -17 | -0.4 | -5.3 | 8 | 8 | 0.0%
O=c1oc2cc(O)ccc2cc1-c1ccccc1 | -13 | 1.4 | 7.3 | 17 | / | 1.6%
COCCCNC(=O)CN1C(=O)COc2ccc(S(=O)(=O)N3CCCCCC3)cc21 | 5&6 | 3.5&-0.4 | 3.4 | -4 | / | 0.4%&2.2%
O=C(CCn1c(=O)oc2ccccc21)Nc1cccc(Cl)c1 | 3 | -0.9 | -3.2 | -1 | 5 | 1.2%
Cc1ccc(S(=O)(=O)N2CCCCC2)cc1NC(=O)CCNC(=O)c1ccccc1Cl | 20 | -1.2 | -0.2 | -2 | 2 | 2.3%
CC(=O)Nc1ccc(CN2CCCC(C(=O)c3cccc(C(F)(F)F)c3)C2)cc1 (stereo unspecified) | -1 | 0.2 | 1.9 | 3 | / | -0.5%
NNC(=O)Cn1cnc2ccccc21 | -2 | -0.3 | 5.2 | 1 | 10 | -0.5%
CCOC(=O)C1(C)CCN1C(=O)c1cc(C)n(C(C)(C)C)n1 (stereo unspecified) | / | -0.9 | -3.5 | 0 | 6 | 2.1%
C=CCN(C(=O)OC(C)(C)C)S(=O)(=O)NCc1ccccc1 | -1 | -0.1&-0.3 | -2.3 | -2 | -1 | 2.1%
O=C(NCC1CCCC(CNC(=O)Nc2ccc(Cl)cn2)C1)Nc1ccc(Cl)cn1 (stereo unspecified) | 17 | -0.4 | 12 | -6 | -1 | 3.3%
O=c1oc(C2(O)CCCCC2)cc2ccc(-c3ccc4[nH]ccc4c3)cc12 | 3 | 0.0 | 1.9 | -3 | -11 | 3.7%
COc1ccc(S(=O)(=O)N2CCOC23CCN(S(=O)(=O)c2cc(C)ccc2C)CC3)cc1 | 54 | 0.2 | -3.6 | -1 | 4 | 1.1%
CC(C)C(=O)N1CCN(c2ccccc2NC(=O)COc2ccc(C3CCCCC3)cc2)CC1 | 77 | 0.3 | -4.1 | -6 | -9 | -0.2%
CC(C)CNC(=O)C1CCN(CC2CCCCC2)CC1 | 32 | -0.2 | 1.7 | 1 | 3 | -0.8%
CCOC(=O)CN(C(=O)CSc1nnnn1C)c1ccccc1 | 7 | 1.9 | 2.9 | 2 | 6 | 0.0%
O=C(CCNC(=O)c1ccc([N+](=O)[O-])cc1)Oc1ccc(F)c(F)c1 | 7 | 0.0 | 5.2 | -13 | / | 1.4%
COc1ccc(-c2nn(-c3ccccc3)cc2CN(C)CCn2ccnc2C)c(F)c1 | -3 | -0.6 | -5.4 | -4 | / | 0.3%
COc1ccc(OC)c(S(=O)(=O)N2CCN(C(=O)CCc3ccccc3)CC2)c1 | -8 | 0.0 | 3.1 | 12 | -3 | 2.3%

6 compounds out of the list above, sorted by their value in PINK1 modulator, ascending.
SMILES,PINK1 modulator
CN=c1scc(-c2ccc(Cl)cc2)n1C,-1.5%
CCOc1ccccc1NC(=O)C(NS(=O)(=O)c1cccc2nsnc12)c1ccccc1 (stereo unspecified),-0.4%
COc1ccc(-c2nn(-c3ccccc3)cc2CN(C)CCn2ccnc2C)c(F)c1,0.3%
O=C(CCc1ccccc1)Nc1nc2n(n1)C(c1ccccc1)CC(=O)N2 (stereo unspecified),0.8%
CCOC(=O)C1(C)CCN1C(=O)c1cc(C)n(C(C)(C)C)n1 (stereo unspecified),2.1%
COc1ccc(C(=O)Nc2cccc(-c3cnc4ccccc4n3)c2)cc1,2.7%

(further entries)
SMILES | TRPML1 inh | TRPML1 ag | D2 ag | Six1-Eya2 blk | CtBP-E1A blk | PINK1 modulator
COc1cc(CN2CCNC(=O)C2CC(=O)N2CCc3ccccc3C2)cc(OC)c1 (stereo unspecified) | 18 | 0.0 | -5.3 | -1 | / | -1.4%
CCOC(=O)C1=C(C)N=c2sc(=Cc3cc(Cl)c(OCC(=O)O)c(Cl)c3)c(=O)n2C1c1cccc(OC)c1 (stereo unspecified) | 11 | 3.1 | -4.6 | -7 | -24 | 2.2%
COc1ccc(C(=O)Nc2ccccc2N2CCOCC2)cc1S(=O)(=O)N1CCOCC1 | -3 | 0.0 | -1.9 | 4 | / | -1.3%
O=C(/C=C/c1cn(CC(O)CN2CCCCCC2)c2ccccc12)c1ccc(Br)cc1 (stereo unspecified) | 13 | 7.4 | / | / | / | -5.9%
Oc1c(C(c2ccco2)N2CCOCC2)sc2ncnn12 (stereo unspecified) | 47 | 0.1 | -6.5 | 9 | -1 | -0.2%
O=C(N/N=C/c1ccc(Cl)c(Cl)c1)c1ccc2nc[nH]c2c1 | 0 | -0.4 | 7.6 | 0 | / | ?
Cc1ccc(S(=O)(=O)C(CNC(=O)c2ccc(F)c(F)c2)c2ccco2)cc1 (stereo unspecified) | 7 | 0.6 | / | / | / | -0.2%
COc1ccc(NC(=O)C(=O)NCCN2CCN(C(=O)c3ccco3)CC2)cc1 | 7 | -0.7 | 14 | 1 | -14 | 1.8%
O=C(Cn1nc(-c2ccccc2)c2ccccc2c1=O)NCC1CCCO1 (stereo unspecified) | -9 | -0.4 | -0.1 | 1 | 6 | -0.4%
Cc1ccccc1C(=O)Nc1nnc(SCC(=O)NCc2ccco2)s1 | 0 | 0.5 | -2.2 | -4 | 1 | 0.7%
COc1cccc(NC(=O)CN(C)C(=O)c2cc3c(s2)CCC(C)C3)c1 (stereo unspecified) | 2 | 2.1 | 4.8 | 0 | 1 | 1.8%

Grouped by structure, the compounds so far with a cyano group
SMILES | TRPML1 inh | TRPML1 ag | D2 ag | Six1-Eya2 blk | CtBP-E1A blk | PINK1 modulator
Cc1nnc(N(Cc2ccco2)C(=O)c2cccc(C#N)c2)s1 | 26 | -0.8 | -2.5 | -2 | -3 | 0.0%
CC(C)c1[nH]nc2c1C(Cc1ccccc1)C(C#N)=C(N)O2 (stereo unspecified) | 3 | 0.0 | -6.9 | -1 | 14 | -1.4%
